Compound activity as filed in PubChem BioAssay.
PINK1 expr mod: modulators of PINK1 expression | 410,000 compounds, 0.2% hits | PINK1 immunofluorescence, high-content cytometry, 24 h | Potency, µM (top dose mostly 76.6 µM), without a hit: top-dose activation (PINK1 increase), most hits filed as activators; active = well fitted activation curve with a large enough effect; inconclusive = small, poorly fitted or top-dose-only effect; inactive = flat fitted curve, though single readings scatter; cell line not stated here;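 note: potency is the fitted concentration of half-maximal effect; % of control where 0% means no effect; nearly all actives have a fitted effect of over 65% in size; a mitochondrial uncoupler was the plate control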
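Fluorescence from anti-PINK1 antibody, together with nuclear and cell stains, was scanned on a laser-scanning cytometer. Before staining, stable-line cells were incubated 24 hours with compounds at 5 concentrations; primary antibody 12 h at 10 degrees C.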
CtBP-E1A blk: inhibitors of CtBP/E1A interaction | 340,000 compounds, 0.49% hits | AID 651724 | AlphaScreen GST-E1A/His-CtBP binding, 1536-well; stronger effect = lower value; control for the full effect not named in the record | activity change, % (test concentration not listed); in the data active means activity change below about -65%; inconclusive means about -30% to -65%; inactive means above about -30%; note: % is set by controls: 0 for no effect and ±100 for the full control effect
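Protein mix (5X: 125 nM each GST-E1A, His-CtBP) was incubated with pinned compound 2 h at 37 deg C in dark, in 50 mM Tris pH 8.0 buffer with 300 mM NaCl. Glutathione donor and nickel acceptor beads followed; AlphaScreen signal read after 1 h.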
D2 PAM: potentiates the human D2 dopamine receptor allosterically; AID 624464; 360,000 compounds, 0.23% hits; DiscoveRx D2 beta-arrestin cells, luminescence, 90 min; 100% = 57 uM dopamine signal; potentiation, % (test concentration not listed); active = potentiation of 50% or more; inconclusive = 30% to 50%; inactive = 30% or less;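 note: compound concentration not given in the record; tested on top of an EC20 dose of dopamine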
Target sequence (P14416 whole entry, looked up): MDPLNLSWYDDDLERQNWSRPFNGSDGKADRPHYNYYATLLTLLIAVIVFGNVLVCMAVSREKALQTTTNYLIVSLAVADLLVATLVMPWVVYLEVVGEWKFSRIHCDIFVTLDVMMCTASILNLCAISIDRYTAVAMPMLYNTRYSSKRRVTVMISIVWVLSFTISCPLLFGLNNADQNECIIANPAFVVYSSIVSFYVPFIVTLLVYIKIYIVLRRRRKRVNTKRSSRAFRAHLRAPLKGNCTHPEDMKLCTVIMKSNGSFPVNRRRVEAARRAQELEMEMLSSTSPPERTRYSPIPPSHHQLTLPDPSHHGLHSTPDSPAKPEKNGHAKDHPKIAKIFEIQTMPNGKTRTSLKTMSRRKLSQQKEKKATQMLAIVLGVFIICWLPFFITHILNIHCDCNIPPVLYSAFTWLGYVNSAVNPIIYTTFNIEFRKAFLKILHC
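D2 cells co-treated with compound plus 50 nM dopamine (EC20) for 90 min at 37 deg C to detect potentiation. Beta-arrestin recruitment was read as enzyme-fragment luminescence after 1 h at ambient temperature. Full response was set by 57 uM dopamine.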
D2 ag: human D2 receptor agonism in beta-arrestin assay; P14416; DiscoveRx PathHunter D2 beta-arrestin, luminescence, 90 min; 100% = 57 uM dopamine signal; activation, % (no concentration beside the values); 360,000 compounds, 0.084% hits; AID 624465; in the data active = activation above about 40%; inconclusive = about 15% to 40%; inactive = below about 15%; note: compound concentration not given in the record; the text of the record calls up to 30% inactive
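DiscoveRx PathHunter D2 beta-arrestin cells (2,100/well) attached overnight, then compound-stimulated 90 min at 37 C in HBSS/10 mM HEPES/0.1% Tween-20 buffer; beta-galactosidase complementation read by luminescence after 1 h at ambient temperature. Dopamine 57 uM final (EC100) as control.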
Six1-Eya2 blk: inhibitors of human Six1/Eya2 interaction; Q15475+O00167; AlphaScreen GST-Six1/His-Eya2 binding, biochemical; stronger effect = lower value; control for the full effect not named in the record; activity change, % (concentration not given with the values); 360,000 compounds, 0.56% hits; AID 651725; in the data active = activity change below about -65%; inconclusive = about -30% to -65%; inactive = above about -30%; note: % is set by controls: 0 for no effect and ±100 for the full control effect
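AlphaScreen with GST-Six1 and His-Eya2 (5X mix: 250 nM and 500 nM), glutathione donor and nickel acceptor beads; buffer 50 mM Tris pH 8.0, 300 mM NaCl, 1 mM TCEP; 1 h at 37 C in the dark.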
TRPML1 ag: human mucolipin-1 channel agonism | Q9GZU1 | TRPML1-expressing cells, Ca2+ dye fluorescence, FDSS; host cell line not named in the record; reference of the full effect not given here | activation, % (no concentration beside the values) | 410,000 compounds, 0.12% hits; in the data active = activation above about 50%; inconclusive = about 30% to 50%; inactive = below about 30%; note: 0% is about no effect; the text of the record puts the active cut at 80%
Target sequence (Q9GZU1 whole entry, looked up): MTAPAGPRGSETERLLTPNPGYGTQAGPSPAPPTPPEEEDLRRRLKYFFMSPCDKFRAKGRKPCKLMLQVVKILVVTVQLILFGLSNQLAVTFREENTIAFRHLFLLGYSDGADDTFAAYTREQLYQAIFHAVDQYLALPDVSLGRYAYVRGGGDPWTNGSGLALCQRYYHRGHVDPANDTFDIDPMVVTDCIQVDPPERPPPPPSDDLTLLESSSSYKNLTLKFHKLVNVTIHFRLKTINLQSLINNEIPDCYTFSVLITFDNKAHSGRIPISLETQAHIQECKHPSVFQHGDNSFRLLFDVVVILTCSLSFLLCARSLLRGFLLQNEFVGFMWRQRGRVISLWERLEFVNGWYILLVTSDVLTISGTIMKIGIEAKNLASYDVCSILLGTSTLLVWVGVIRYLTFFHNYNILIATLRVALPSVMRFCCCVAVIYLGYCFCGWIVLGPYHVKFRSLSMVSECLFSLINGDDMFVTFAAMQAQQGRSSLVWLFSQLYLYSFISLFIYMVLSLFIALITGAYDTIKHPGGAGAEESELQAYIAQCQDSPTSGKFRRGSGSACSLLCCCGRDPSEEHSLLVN
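In this qHTS format, compounds were pin-transferred onto Ca8-dye-loaded TRPML1-DL cells induced with Tet overnight, and intracellular Ca2+ fluorescence was recorded kinetically for 110 s after a 10 s baseline. A subsequent 4uM final 54-4 (EC80) addition followed by a second 110 s read served as the antagonist phase.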
* marks the source's active call; other numbers are inactive results; ? = inconclusive; · = no result given; & = joins results of further samples; [ ] = another dose, or the depositor's remark. Hits appear at their usual frequency; overall some 1.3% were active at least once.

No. | SMILES | PINK1 expr mod | CtBP-E1A blk | D2 PAM
1 | Cc1onc(-c2ccc(Cl)cc2)c1-c1ccnn1S(=O)(=O)c1cccc(C(F)(F)F)c1 | 5.4% | 0.5 | -8.8
2 | CCOc1ccc(S(=O)(=O)N(CC(=O)NCc2cccnc2)c2ccc(F)cc2)cc1 | 2.8% | -1.3 | 9.7
3 | CCCCc1ccc(NC(=O)CSc2nc(=O)n(CCN(CC)CC)c3c2CCC3)cc1 | -2.2% | 10.7 | -4.4
4 | CCOc1ccc(/C=C(\C#N)C(=O)Nc2cccnc2)cc1 | 0.1% | 3.1 | -11.8
5 | COc1cccc(CN(C)C(=O)c2ccccc2Sc2ccccc2C#N)c1OC | 0.0% | 3.6 | 2.2
6 | CN(C(=O)c1ccc(OC2CCN(CCc3ccccc3)CC2)cc1)C1CCOCC1 | -1.4% | · | -14.5
7 | O=C(c1nc2ccc(Cl)cn2c1CN1CCCC(CO)C1)N1CCc2ccccc2C1 (stereo unspecified) | -1.1% | 2.2 | -10.9
8 | CCOc1cc(N2CCOCC2)c(OCC)cc1NC(=O)c1nn(CC)c(=O)c2ccccc12 | 7.1% | -3.9 | 15.4
9 | COc1ccc(N(C(=O)COc2ccc(F)cc2)S(=O)(=O)c2ccc(C)cc2)cc1 | 0.5% | -8.8 | -23.2
10 | Cc1ccc(C(=O)Nc2c(-c3cccs3)c(=O)c3ccccc3n2C)cc1 | 5.2%[38.3 µM] | -2.0 | -0.1
11 | CC(C)Cn1c(CN2CCN(C(=O)c3ccco3)CC2)nc2c1c(=O)n(C)c(=O)n2C | 0.1% | -1.3 | -4.9
12 | Cc1cc(Cl)ccc1OC(C)C(=O)Nc1ccc([N+](=O)[O-])cn1 (stereo unspecified) | 4.5% | -4.0 | 4.1
13 | CC1(c2ccccc2)NC(=O)N(CC(=O)N2CC(=O)Nc3ccccc32)C1=O (stereo unspecified) | 2.3% | 5.8 | 1.6
14 | COc1ccc(S(=O)(=O)N2CCN(Cc3ccccc3)CC2)c(C)c1 | 1.5% | · | -29.5
15 | CCOC(=O)/C(=N\Nc1ccc(Br)cc1)N1CC(C)OC(C)C1 (stereo unspecified) | 3.6% | -3.0 | 6.8

No. | D2 ag | Six1-Eya2 blk | TRPML1 ag
1 | 3.9 | 5.8 | 4.8
2 | 11.7 | 12.4 | -0.3
3 | -1.3 | 2.9 | -0.1
4 | -0.8 | -1.7 | 0.8
5 | -0.7 | 0.3 | 0.2
6 | 3.2 | -1.1 | 2.5
7 | 2.2 | 1.9 | -0.3
8 | 4.4 | -21.8 | -0.1
9 | -1.6 | -2.3 | 3.6
10 | -0.4 | -1.4 | 0.5
11 | -5.7 | 6.1 | -0.6
12 | 2.8 | -28.7 | 1.9
13 | 4.5 | -1.2 | 0.3
14 | -3.3 | -1.7 | 0.7
15 | 1.0 | -9.0 | 1.2

(more compounds)
No. | SMILES | PINK1 expr mod | CtBP-E1A blk | D2 PAM
16 | CCOC(=O)C1CCN(c2ncnc3c(C)csc23)CC1 | 0.3% | -25.0 | -27.5
17 | CC(C)c1ccc(C2CC(=O)N3CN(Cc4ccco4)CSC3=C2C#N)cc1 (stereo unspecified) | 3.3% | -3.5 | 5.7
18 | CC(C)(C)c1nc(Sc2ccc([N+](=O)[O-])cn2)n[nH]1 | -0.5% | 8.4 | -7.3
19 | COc1ccc(C2N(c3cccc(Cl)c3)C(=O)C3CCCN32)cc1 (stereo unspecified) | -0.4% | 4.5 | -3.6
20 | NC(=O)c1ccc(NC(=O)CNc2cc(S(=O)(=O)N3CCOCC3)ccc2N2CCCC2)cc1 | -0.5% | · | 2.8
21 | Cc1sc2c(c1C)c(=O)n(-c1ccc(Cl)cc1)c(=O)n2Cc1cc(=O)n2ccccc2n1 | 2.6%&5.2% | 3.1 | -7.5
22 | CCC(C)NC(=O)Cn1nc(C(F)(F)F)c2c1CCC2 (stereo unspecified) | -1.3% | 10.2 | 1.8
23 | COc1ccc(N2CCN(c3ccc(NC(=O)NN)cc3)CC2)cc1 | -0.2% | -6.1 | -1.8
24 | O=C(NC1CCCC1)C1c2ccccc2C(=O)N1C1CCCCC1 (stereo unspecified) | 3.0%[38.3 µM] | 5.2 | -9.1
25 | CCN1CCc2c(sc(NC(=O)c3cc4ccccc4cc3OC)c2C(N)=O)C1 | 1.6% | -2.1 | -15.6
26 | CCCCNC(=O)CCCCCNS(=O)(=O)c1ccc(Br)cc1 | 0.9% | · | -4.1
27 | Cn1c(SCC(=O)OCc2ccccc2)nnc1-c1ccco1 | -0.1% | 2.5 | -11.1
28 | COc1ccc(NC(=O)Nc2ccc3nc([C@@H]4O[C@H](CO)[C@@H](O)[C@H](O)[C@H]4O)[nH]c3c2)cc1OC1CCCC1 | 1.2% | -6.1 | -1.1
29 | Cc1cc(C)nc(SCC(=O)Nc2ncc(C(F)(F)F)cc2Cl)n1 | -0.6% | -14.6 | 2.3
30 | Cc1ccc(NC(=O)c2cccnc2)cc1C | -0.1% | 3.8 | -4.0

No. | D2 ag | Six1-Eya2 blk | TRPML1 ag
16 | -0.6 | 15.0 | 1.0
17 | 5.6 | -3.0 | -0.1
18 | -1.2 | 2.9 | 0.6
19 | -5.3 | 3.8 | 0.5
20 | -1.6 | -7.6 | -0.4
21 | -5.0 | -14.8 | -1.2&-0.2
22 | 1.7 | 0.8 | 0.3
23 | 5.9 | -8.7 | 0.3
24 | -0.3 | 1.1 | -0.3
25 | -2.3 | 3.2 | -0.8
26 | -1.7 | -4.2 | 1.5
27 | -1.3 | 23.2 | -0.8
28 | 5.8 | -10.6 | -0.4
29 | -2.5 | 10.6 | -0.5
30 | -2.8 | -0.5 | 0.0

(further entries)
No. | SMILES | PINK1 expr mod | CtBP-E1A blk | D2 PAM
31 | COc1ccc(-c2c[nH]c(=O)[nH]c2=O)cc1OC | -0.9% | -13.6 | -14.2
32 | Cc1nnc(SC(C)C(=O)NC2CCCCC2C)s1 (stereo unspecified) | 0.0% | -4.6 | -21.0
33 | COC(=O)c1ccccc1NC(=O)C1COc2ccccc2O1 (stereo unspecified) | 1.9% | 6.9 | -2.8
34 | Cc1c(C(N)=O)sc2ncn(CC(=O)N3CCC(C)CC3)c(=O)c12 | -2.3%[38.3 µM] | -2.0 | -6.7
35 | O=C(CSc1nnc(SCC(=O)c2ccco2)s1)c1ccco1 | -1.0% | -1.5 | -2.2
36 | CC(C)NC(=O)CC1(C(=O)NCc2ccc(Cl)cc2)CCCC1 | -0.6% | 3.7 | -2.1
37 | Cc1ccccc1OCCNC(=O)c1ccccc1Sc1ccccc1C#N | 1.4% | 6.5 | 3.6
38 | COc1ccc(OC)c(NP2(=O)OCC(C)([N+](=O)[O-])CO2)c1 (stereo unspecified) | -5.3% | 4.2 | 6.2
39 | c1ccc(NC2=NCCN2CCC2CCCC2)cc1 | 0.0% | 4.1 | -22.5
40 | CC(C)C(C(=O)NCc1ccccc1)N(CC1CCCO1)C(=O)CNS(=O)(=O)c1ccccc1 (stereo unspecified) | -2.8% | 5.9 | -2.7
41 | CCCn1cc(CN2CCN(Cc3ccc(C)o3)C(CCO)C2)c(C)n1 (stereo unspecified) | 2.0% | -1.7 | -8.5
42 | CC1=C(C(=O)Nc2ccccc2)C(c2cccs2)NC(=O)N1 (stereo unspecified) | -1.5% | · | -8.7
43 | COC(=O)c1sccc1NC(=S)N1CCCCC1 | -0.1% | -0.1 | 10.4
44 | CC(=O)c1ccc(S(=O)(=O)N2CCN(CCOc3ccccc3)CC2)cc1 | -1.4% | 2.3 | -6.2
45 | CC(C)(C)OC(=O)N[C@H](C(=O)OC(C)(C)C)c1ccc2c(c1)OCO2 | 1.7% | · | -12.1

No. | D2 ag | Six1-Eya2 blk | TRPML1 ag
31 | -4.3 | 18.4 | 2.1
32 | -2.4 | 12.4 | 0.0
33 | -5.3 | 16.8 | -0.2
34 | -1.2 | 3.0 | 1.8
35 | 0.5 | 0.8 | 0.1
36 | -2.6 | 7.9 | 0.3
37 | 0.2 | 10.9 | 1.0
38 | 0.7 | -5.0 | 0.1
39 | -0.5 | -2.3 | -0.7
40 | 3.9 | 3.6 | -0.5
41 | -0.8 | 1.6 | -0.5
42 | 1.3 | 9.2 | 0.0
43 | -1.5 | 0.1 | 0.1
44 | 5.0 | -2.8 | -0.5
45 | -2.0 | 8.0 | 1.2

Next part; the last two above are carried over.
No. | SMILES | PINK1 expr mod | CtBP-E1A blk | D2 PAM
44 | CC(=O)c1ccc(S(=O)(=O)N2CCN(CCOc3ccccc3)CC2)cc1 | -1.4% | 2.3 | -6.2
45 | CC(C)(C)OC(=O)N[C@H](C(=O)OC(C)(C)C)c1ccc2c(c1)OCO2 | 1.7% | · | -12.1
46 | OCC[C@@H]1C[C@H](O)[C@@H](O)[C@@]2(CCCO2)O1 | 1.6% | 6.3 | -3.7
47 | Cc1ccc(NS(=O)(=O)c2cc(C(=O)NCc3ccncc3)ccc2C)cc1 | 2.0% | 5.3 | 0.9
48 | O=C(NCCCc1ccccc1)c1cccc(NC(=O)C2CCC2)c1 | -0.7% | 8.2 | -0.1
49 | CCOCCCNC(=O)c1ccccc1SC | 1.0% | -4.2 | 7.6
50 | CC(C)[C@@H]1CN=C(N)N1C[C@@H]1CCCN1C[C@H](C)N1C[C@@H](Cc2ccccc2)N(CCc2ccc(Cl)c(Cl)c2)C1=N | -1.1% | ? | ·
51 | CCn1c(=O)cc(OCC(=O)NC2CC2)c2ccccc21 | 2.0% | 12.8 | -11.0
52 | COc1cccc(C2CC(c3ccccc3Cl)Nc3nc(N)nn32)c1 (stereo unspecified) | 0.7% | 6.5 | -39.9
53 | CCOc1ccc(Cl)cc1-c1cc(C(=O)Nc2ccc(F)cc2)[nH]n1 | 24.0% | 2.1 | -13.0
54 | CN(CC(=O)Nc1c(Cl)cccc1Cl)C(=O)c1cccn1C | -0.3% | -0.4 | 5.9

No. | D2 ag | Six1-Eya2 blk | TRPML1 ag
44 | 5.0 | -2.8 | -0.5
45 | -2.0 | 8.0 | 1.2
46 | -0.9 | 0.0 | -0.7
47 | 3.4 | -1.0 | -0.3
48 | 2.8 | 4.2 | 1.2
49 | -0.1 | -1.6 | -0.3
50 | -3.9 | -0.8 | 0.0
51 | -1.9 | 1.5 | -0.6
52 | 0.4 | -10.5 | 6.6
53 | 4.0 | -9.8 | -0.6
54 | 0.8 | -3.9 | -0.3

Some of these compounds in order of the D2 ag value, high to low.
no.	mol	D2 ag
44	CC(=O)c1ccc(S(=O)(=O)N2CCN(CCOc3ccccc3)CC2)cc1	5.0
49	CCOCCCNC(=O)c1ccccc1SC	-0.1
45	CC(C)(C)OC(=O)N[C@H](C(=O)OC(C)(C)C)c1ccc2c(c1)OCO2	-2.0

Some values from the entries so far:
entry 37 | Six1-Eya2 blk = 10.9
entry 35 | CtBP-E1A blk = -1.5
